Source: PubChem
StopGo reporter: High Throughput Screening for Foot and Mouth Disease Virus Antivirals. human cells with a luciferase reporter of 2A StopGo recoding; control for the full effect not named in the record. hit rate 1.2% among 410,000. AID 1159524, 2015. Potency, µM (doses to about 57.9 µM), inactives show at the top dose signal change, negative = less light; active = well fitted falling curve with a large enough effect; inconclusive = small, poorly fitted or top-dose-only effect; inactive = no such curve, though single readings can be large or run the other way; tested in HEK293T cells; note: % is set by controls: 0 for no effect and ±100 for the full control effect; nearly all actives have a fitted effect of over 45% in size; luciferase light after 4 h
RE007 growth inh: qHTS Assay for Inhibitors of the HIV-1 protein Vpr | S. pombe RE007 Vpr strain, BacTiter-Glo ATP luminescence, 24 h; control for the full effect not named in the record | Potency, µM (doses to about 92.2 µM), for the others: at the highest dose activity change, negative = less growth | hit rate 0.21% among 360,000; active = well fitted falling curve with a large enough effect; inconclusive = small, poorly fitted or top-dose-only effect; inactive = no such curve, though single readings can be large or run the other way;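 note: % is set by controls: 0 for no effect and ±100 for the full control effect; nearly all actives have a fitted effect of over 50% in size; the assay follows cell death caused by Vpr and the record does not say whether a fall means rescue or toxicity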
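Fission yeast strain RE007, carrying one chromosomally integrated HIV-1 vpr copy, was seeded at OD 0.01 in PMG+AL medium with 23 nL pinned compound. After 24 h at 30 °C and 99% humidity, viability was read by BacTiter-Glo luminescence.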
NS1 function inh: qHTS Assay for Inhibitors of Influenza NS1 Protein Function | S. cerevisiae slowed by influenza A NS1, growth recovery by OD600 | Potency, µM (titrated, usually from 46.1 µM), for the others: at the top dose activity, positive = more growth | hit rate 0.4% among 270,000; note: actives are rising curves; nearly all actives have a fitted effect of over 50% in size
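S. cerevisiae expressing influenza A NS1, grown in glucose, washed, then diluted 1:100 into pH 6.0 -URA galactose medium with 23 nl compound. Growth recovery read as OD600; NS1-free strain serves as control.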
Cruzain inh noDet: qHTS Assay for Promiscuous and Specific Inhibitors of Cruzain (without detergent). Cruzipain (Trypanosoma cruzi), P25779. purified cruzain, Z-FR-AMC fluorescence, no detergent. Potency, µM, inactives show max response, negative = inhibition, hits mostly inhibitors. hit rate 2.3% among 200,000. AID 1476, 2009; active = well fitted curve in the direction sought with a large enough effect; inconclusive = small, poorly fitted or top-dose-only effect, or another doubt; inactive = no such curve, though single readings can be large; an effect the other way counts as inactive or inconclusive;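 note: plate controls were enzyme without inhibitor for no effect and buffer without enzyme for full effect; nearly all actives have a fitted effect of over 40% in size; top concentration of the series not given in the record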
Target sequence (P25779 123-467 limits assumed): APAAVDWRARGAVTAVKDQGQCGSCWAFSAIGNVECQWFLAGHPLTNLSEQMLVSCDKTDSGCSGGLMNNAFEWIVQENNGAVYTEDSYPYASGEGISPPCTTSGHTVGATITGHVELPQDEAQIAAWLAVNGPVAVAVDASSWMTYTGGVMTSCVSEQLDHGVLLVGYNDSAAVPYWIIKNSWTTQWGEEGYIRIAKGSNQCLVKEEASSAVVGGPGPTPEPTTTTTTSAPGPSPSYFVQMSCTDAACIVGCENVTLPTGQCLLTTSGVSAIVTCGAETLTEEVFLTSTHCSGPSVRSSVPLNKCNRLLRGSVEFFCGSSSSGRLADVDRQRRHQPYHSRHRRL
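Detergent-free condition (0.00005% Triton X-100) in acetate buffer pH 5.5 with DTT. 1.5 nM enzyme and compound were pre-mixed 15 min, then 2 uM Z-FR-AMC substrate added; reaction progress from fluorescence change between first and third reads (60 s).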
Lassa entry inh: qHTS for Inhibitors of binding or entry into cells for Lassa Virus; Lassa virus pseudotype entry inhibition, cell reporter; control for the full effect not named in the record; hit rate 1.2% among 300,000; Potency, µM (series often up to 37.9 µM), for the others: top-dose activity change, negative = inhibition, hits mostly inhibitors; AID 540256, 2011; active means well fitted inhibition curve with a large enough effect; inconclusive means small, poorly fitted or top-dose-only effect, or effect the other way; inactive means flat fitted curve, though single readings scatter; tested in HEK293 cells; note: % is set by controls: 0 for no effect and ±100 for the full control effect; nearly all actives have a fitted effect of over 50% in size; luciferase read-out
Cruzain Triton: qHTS Assay for Promiscuous and Specific Inhibitors of Cruzain (with detergent); Cruzipain (Trypanosoma cruzi), P25779; purified cruzain, Z-FR-AMC fluorescence, 0.01% Triton; Potency, µM, inactives show max response, negative = inhibition, actives largely listed as inhibitors; hit rate 0.43% among 200,000; active = well fitted curve in the direction sought with a large enough effect; inconclusive = small, poorly fitted or top-dose-only effect, or another doubt; inactive = no such curve, though single readings can be large; an effect the other way counts as inactive or inconclusive;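 note: plate controls were neutral wells for no effect and buffer without enzyme for full effect; nearly all actives have a fitted effect of over 40% in size; top concentration of the series not given in the record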
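In this qHTS format, compounds are incubated with 1.5 nM cruzain for 15 min at room temperature before 2 uM Z-FR-AMC is added. Release of AMC is followed at 360/450 nm, and progress is taken as the 60 s fluorescence difference.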
MARV entry inh: qHTS for inhibitors of binding or entry into cells for Marburg Virus; Potency, µM (titrated, usually from 37.8 µM), for the others: at the highest dose activity change, negative = inhibition, hits mostly inhibitors; hit rate 1.8% among 300,000; Marburg virus pseudotyped entry inhibition, cell reporter; control for the full effect not named in the record; about a third of the inactives were read at about 46 µM; active = well fitted inhibition curve with a large enough effect; inconclusive = small, poorly fitted or top-dose-only effect, or effect the other way; inactive = flat fitted curve, though single readings scatter; tested in HEK293 cells; about a fifth of its hits are not listed in these tables; note: % is set by controls: 0 for no effect and ±100 for the full control effect; luciferase read-out
SARS PLP yeast: qHTS of Yeast-based Assay for SARS-CoV PLP. hit rate 0.19% among 330,000. AID 485353, 2010. S. cerevisiae expressing SARS-CoV PLpro, growth rescue; control for the full effect not named in the record. Potency, µM (highest dose often 32.9 µM), inactives show at the top dose activity, positive = growth rescue; note: 0% is about no effect; nearly all actives have a fitted effect of over 55% in size; growth read by luminescence after 48 h
* marks the source's active call; other numbers are inactive results; & = joins results of further samples; [ ] = remark or other dose. Unless noted, calls come from the whole dose curve; as a rule, active means well fitted rising curve with a large enough effect; inconclusive means small, poorly fitted or top-dose-only effect; inactive means no such curve, though single readings can be large or run the other way. Potency is the fitted concentration of half-maximal effect. Outcome played no part in choosing rows; about 4.6% have a hit in one of these screens.

What do the screens show for `CN(CCO)c1cc(N(C)CCO)c([N+](=O)[O-])cc1[N+](=O)[O-]`?
StopGo reporter: -1.6%; RE007 growth inh: 10.2%; Lassa entry inh: 11.3%[46.1 µM]; MARV entry inh: 7.7%[46.1 µM]; SARS PLP yeast: -1.9%

How did COc1ccc(CNc2nc3nc(C)c(Cl)c(=O)n3[nH]2)cc1 do in these assays?
StopGo reporter: -0.5%; RE007 growth inh: 1.6%; NS1 function inh: 2.9%; SARS PLP yeast: 0.6%

How did COc1ccc(CCNC(=O)c2cnn(-c3cccc(C)c3)c2C2CCN(C(=O)OC(C)(C)C)CC2)cc1OC do in these assays?
StopGo reporter: -15.7%; Cruzain inh noDet: inconclusive; Lassa entry inh: -14.6%[46.1 µM]; Cruzain Triton: -6.6%

How did CCCc1cc(=O)[nH]c(SCC(=O)Nc2ccc(Br)cc2)n1 do in these assays?
StopGo reporter: 1.1%; RE007 growth inh: -5.6%; NS1 function inh: -0.3%; Lassa entry inh: -3.5%; MARV entry inh: 2.4%[46.1 µM]; SARS PLP yeast: -0.5%

How did O=C(CSc1nnc2scc(-c3ccc(Cl)cc3)n12)NCc1ccc2c(c1)OCO2 do in these assays?
StopGo reporter: -25.4%; RE007 growth inh: -8.3%; NS1 function inh: inconclusive; Cruzain inh noDet: -21.8%; Lassa entry inh: 8.2%; Cruzain Triton: 1.9%; MARV entry inh: 6.7%; SARS PLP yeast: -14.0%

Results for O=C(NCc1ccccc1Cl)C1CC(=O)N(Cc2ccccc2)C1 (stereo not given) ?
StopGo reporter: 2.1%; RE007 growth inh: 7.0%; Lassa entry inh: 2.0%; MARV entry inh: -1.7%; SARS PLP yeast: 9.7%

Results for CCn1nc(C)cc1C(=O)N1CCCC(Nc2ccc(C(C)C)cc2)C1 (stereo not given) ?
StopGo reporter: 0.0%; RE007 growth inh: 5.2%; NS1 function inh: -7.9%; Lassa entry inh: -4.0%; MARV entry inh: -23.2%; SARS PLP yeast: -4.1%

Results for c1ccc(CCC2CCCCN2Cc2cn[nH]c2-c2cc3ccccc3o2)nc1 (stereo not given) ?
StopGo reporter: -5.5%; RE007 growth inh: -2.0%; NS1 function inh: 3.0%; Lassa entry inh: inconclusive; MARV entry inh: inconclusive; SARS PLP yeast: -0.3%

Results for COC(=O)c1ccc(Oc2nc(NC(C)C)nc(SC)n2)cc1 ?
StopGo reporter: -13.3%; RE007 growth inh: -0.2%; NS1 function inh: -31.3%; Cruzain inh noDet: 1.6%; Lassa entry inh: -22.3%; Cruzain Triton: -0.8%; MARV entry inh: -23.5%; SARS PLP yeast: -5.1%

How did CC1(C)Cc2c(cnn2-c2ccc(F)cc2)C(NC(=O)C2=NNC(=O)CC2)C1 (stereo not given) do in these assays?
StopGo reporter: 6.0%; RE007 growth inh: 6.0%; NS1 function inh: 1.9%; SARS PLP yeast: 0.3%

How did O=C(COC(=O)C1CCC1)Nc1cc(S(=O)(=O)N2CCCCC2)ccc1Cl do in these assays?
StopGo reporter: -14.1%; RE007 growth inh: 13.7%; Lassa entry inh: 2.0%[46.1 µM]; MARV entry inh: -25.7%; SARS PLP yeast: -19.4%

How did N#CCSc1nnc(COc2ccc3ccccc3c2)o1 do in these assays?
StopGo reporter: -1.4%; RE007 growth inh: 0.9%; NS1 function inh: -49.1%; Cruzain inh noDet: 4.2%; Lassa entry inh: -0.9%; Cruzain Triton: -4.1%; MARV entry inh: inconclusive; SARS PLP yeast: -17.1%

What do the screens show for `O=C(OCC(=O)N1CCCC1=O)c1cc(S(=O)(=O)N2CCOCC2)ccc1F`?
StopGo reporter: -18.6%; RE007 growth inh: -3.2%; Lassa entry inh: -24.4%; MARV entry inh: -0.5%; SARS PLP yeast: -0.1%

What do the screens show for `C[n+]1cccc2c(Br)ccc([O-])c21`?
StopGo reporter: -20.0%; RE007 growth inh: -20.0%; NS1 function inh: 2.4%; Lassa entry inh: inconclusive; MARV entry inh: 7.3%[46.1 µM]; SARS PLP yeast: -0.1%

How did C/C(=N\S(=O)(=O)c1ccc(C)cc1)N1CCN(S(=O)(=O)c2ccccc2)C1 do in these assays?
StopGo reporter: 28.1%; RE007 growth inh: -5.3%; NS1 function inh: inconclusive; Cruzain inh noDet: 8.8%; Lassa entry inh: 0.9%; Cruzain Triton: 5.2%; MARV entry inh: inconclusive; SARS PLP yeast: 6.1%

Results for COc1ccc(C(=O)N2CCCC(CNC(=O)c3ccc(F)cc3)C2)cc1OC (stereo not given) ?
StopGo reporter: 13.6%; RE007 growth inh: 7.8%; NS1 function inh: 11.4%; SARS PLP yeast: 2.1%

Results for O=C(c1cccn1-c1nnc(N2CCCC2)s1)N1CCN(c2ccc(Cl)cc2)CC1 ?
StopGo reporter: -26.5%; Cruzain inh noDet: 5.8%; Lassa entry inh: 17.5%[46.1 µM]; Cruzain Triton: 0.2%

How did CSc1nc(-c2ccc(C)cc2)nc(N)c1C#N do in these assays?
StopGo reporter: -6.2%; RE007 growth inh: -6.3%; NS1 function inh: -1.7%; SARS PLP yeast: -1.5%

What do the screens show for `CNC(=O)CN1C(=O)CSc2nc(C)cc(C)c21`?
StopGo reporter: -5.9%; RE007 growth inh: 18.6%; NS1 function inh: 3.9%; Cruzain inh noDet: -8.5%; Lassa entry inh: 24.7%; Cruzain Triton: 2.2%; MARV entry inh: 4.7%; SARS PLP yeast: -8.3%

Results for COc1cccc(-c2nc(CS(=O)(=O)CC(=O)NC3CCCCC3C)c(C)o2)c1 (stereo not given) ?
StopGo reporter: -23.3%; RE007 growth inh: 0.6%; NS1 function inh: 17.6%; Lassa entry inh: -13.1%[46.1 µM]; MARV entry inh: -21.3%[46.1 µM]; SARS PLP yeast: 14.8%

How did NNC(=O)c1csc(-c2ccc(C(F)(F)F)cc2Cl)n1 do in these assays?
StopGo reporter: 12.2%; RE007 growth inh: 3.9%; NS1 function inh: 2.2%; Lassa entry inh: -23.4%[46.1 µM]; MARV entry inh: 4.2%[46.1 µM]; SARS PLP yeast: -0.5%

What do the screens show for `CCc1ccc(-n2c(SCc3c(C)noc3C)nnc2-c2ccncc2)cc1`?
StopGo reporter: -9.5%; RE007 growth inh: 2.8%; NS1 function inh: -1.7%; Cruzain inh noDet: 12.9%; Lassa entry inh: 5.5%; Cruzain Triton: 2.5%; MARV entry inh: inconclusive; SARS PLP yeast: -1.3%

What do the screens show for `CC(C)C(=O)Nc1nc2ccc(S(C)(=O)=O)cc2s1`?
StopGo reporter: 27.2%; RE007 growth inh: -5.9%; NS1 function inh: -4.7%; Lassa entry inh: inconclusive; MARV entry inh: 4.5%[46.1 µM]; SARS PLP yeast: -0.8%

How did CCc1cccc(OCCCCNCCO)c1 do in these assays?
StopGo reporter: -5.4%; RE007 growth inh: -1.2%; NS1 function inh: 0.0%; Cruzain inh noDet: -17.2%; Lassa entry inh: 15.8%; Cruzain Triton: 4.1%; MARV entry inh: -0.8%; SARS PLP yeast: -4.6%

How did O=S(=O)(Nc1ccc(-n2cnnn2)cc1)c1cccc(F)c1 do in these assays?
StopGo reporter: 13.3%; RE007 growth inh: 1.4%; Lassa entry inh: -13.4%; MARV entry inh: 15.0%[46.1 µM]; SARS PLP yeast: 0.3%

Results for CC(=NNC(=O)c1ccncc1)c1ccc2ccccc2c1O ?
StopGo reporter: -1.7%; RE007 growth inh: 0.8%; Lassa entry inh: 5.01µM*; MARV entry inh: 7.94µM*

Results for O=[N+]([O-])c1cc(Cl)c(Cl)cc1Cl ?
StopGo reporter: -16.5%; RE007 growth inh: -2.4%; Cruzain inh noDet: 0.5%; Cruzain Triton: 0.9%; SARS PLP yeast: -4.3%

How did Cc1cc(NC(=O)c2ccc(Cl)c(Cl)c2)ccc1-c1cc2ccccc2oc1=O do in these assays?
StopGo reporter: -4.3%; Cruzain inh noDet: 17.4%; Lassa entry inh: -12.6%[46.1 µM]; Cruzain Triton: 1.9%

How did O=P1(Nc2ccc(F)cc2)COc2ccccc2OC1 do in these assays?
StopGo reporter: 61.0%[activator]; RE007 growth inh: 8.5%; NS1 function inh: 5.5%; Cruzain inh noDet: 0.9%; Lassa entry inh: -3.8%; Cruzain Triton: 2.4%; MARV entry inh: 3.8%&3.8%; SARS PLP yeast: 14.5%

Results for CN1CCN(C(=O)C2=C[C@H](c3ccccc3)C[C@H](OCc3ccc(CO)cc3)O2)CC1 ?
StopGo reporter: -8.3%; RE007 growth inh: 7.0%; NS1 function inh: 1.3%; SARS PLP yeast: 0.8%

Results for Cc1cc(-c2n[nH]c(=S)n2/N=C/c2ccc(Br)s2)n[nH]1 ?
StopGo reporter: -19.7%; NS1 function inh: 26.8%; Cruzain inh noDet: -3.5%; Lassa entry inh: 0.8%; Cruzain Triton: -6.5%; MARV entry inh: -32.6%; SARS PLP yeast: 9.4%

How did Cc1n[nH]c(=O)c2c(NC(=O)COC(=O)/C=C/c3cccc(C(F)(F)F)c3)oc(C)c12 do in these assays?
StopGo reporter: inconclusive; RE007 growth inh: inconclusive; Lassa entry inh: 7.3%; MARV entry inh: 1.8%

What do the screens show for `CSc1nc(NC(C)(C)C)nc(Oc2ccc(=O)[nH]n2)n1`?
StopGo reporter: 15.9%; RE007 growth inh: -0.8%; NS1 function inh: -5.4%; Cruzain inh noDet: -11.3%; Lassa entry inh: -2.4%; Cruzain Triton: -1.8%; MARV entry inh: -10.5%; SARS PLP yeast: 6.4%

Results for COc1ccc2ccccc2c1/C=N/O ?
StopGo reporter: 4.6%; RE007 growth inh: -14.4%; NS1 function inh: -10.1%; Cruzain inh noDet: -1.6%; Lassa entry inh: 11.8%; Cruzain Triton: 0.5%; MARV entry inh: inconclusive; SARS PLP yeast: 8.8%

How did COC(=O)c1ccc(C)c(NC(=O)C(CCSC)NC(=O)c2cc(OC)c(OC)c(OC)c2)c1 (stereo not given) do in these assays?
StopGo reporter: 19.9%; RE007 growth inh: 3.2%; NS1 function inh: 6.1%; Lassa entry inh: 0.2%; MARV entry inh: -2.9%[46.1 µM]; SARS PLP yeast: 1.2%
